# RGS16-Gao HTS = RGS16-Galphao interaction regulator (human) | hit rate 0.38% among 220,000 | binding response (% of control), % at 10 µM | AID 1441 | bead-based flow cytometry RGS16-Galphao binding, fluorescence; actives lie on both sides;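 active = below 25% or above 175%, edge rows of some plates excepted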;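 also: Galphao activated by GDP with aluminum fluoride before binding; 100% = wells without compound and 0% = beads without RGS; some results beyond the cut were filed as inactive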
# INS promoter inh = TRM-6 insulin promoter activity inhibition; inhibition, % at 2 µM; TRM-6 cells (human fetal islet line), insulin promoter-eGFP reporter, imaging; reporter expression induced with tamoxifen; hit rate 0.9% among 130,000;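 active = inhibition above the mean plus 3 SD, with well images judged a real hit on visual review, cut at about 60% in these data, passing the limit was not always enough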
# GALR2 ag = activates the human galanin receptor 2; O43603; GALR2-expressing cells, agonist activation read-out; activation, %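 (tested at 5 µM)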; hit rate 0.48% among 140,000;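 active = above mean plus 3 SD of all compounds, about 5% in these data, not always enough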;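 also: 0% = vehicle buffer wells and 100% = reference agonist at full effect; tested in CHO reporter cells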
# PKD1 kinase inh = inhibitors of human PKD1 kinase. Q15139. PKD1 kinase fluorescence polarization assay. inhibition, %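 (about 10 µM by stock and volumes)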. hit rate 0.056% among 200,000;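 active = inhibition of 50% or more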;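 also: controls were vehicle for no effect and a reference inhibitor for full effect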
# Target sequence (Q15139 whole entry, looked up): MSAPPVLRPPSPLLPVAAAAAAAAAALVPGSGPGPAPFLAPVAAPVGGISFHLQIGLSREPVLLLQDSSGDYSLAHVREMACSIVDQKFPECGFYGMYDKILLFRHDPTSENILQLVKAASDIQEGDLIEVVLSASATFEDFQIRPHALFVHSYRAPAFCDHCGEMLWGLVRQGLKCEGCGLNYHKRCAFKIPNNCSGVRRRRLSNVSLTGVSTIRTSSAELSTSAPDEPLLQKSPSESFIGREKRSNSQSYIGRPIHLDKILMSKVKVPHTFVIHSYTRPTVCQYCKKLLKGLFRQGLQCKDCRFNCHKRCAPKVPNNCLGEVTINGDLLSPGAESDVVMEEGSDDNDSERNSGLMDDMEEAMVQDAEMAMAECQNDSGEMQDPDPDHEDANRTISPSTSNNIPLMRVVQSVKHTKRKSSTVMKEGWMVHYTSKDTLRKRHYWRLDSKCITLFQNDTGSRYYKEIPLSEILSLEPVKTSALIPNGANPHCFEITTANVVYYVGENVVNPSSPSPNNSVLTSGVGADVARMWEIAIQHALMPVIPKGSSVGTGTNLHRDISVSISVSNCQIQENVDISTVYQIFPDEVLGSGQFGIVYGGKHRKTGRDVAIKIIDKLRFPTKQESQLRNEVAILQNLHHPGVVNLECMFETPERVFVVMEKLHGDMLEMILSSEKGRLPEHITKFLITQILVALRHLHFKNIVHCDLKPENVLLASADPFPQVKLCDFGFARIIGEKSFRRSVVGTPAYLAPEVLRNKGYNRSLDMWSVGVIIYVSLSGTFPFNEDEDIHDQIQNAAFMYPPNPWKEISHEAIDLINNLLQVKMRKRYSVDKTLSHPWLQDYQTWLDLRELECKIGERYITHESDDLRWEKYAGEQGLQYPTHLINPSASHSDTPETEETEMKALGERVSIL
# HSV replic up = HSV replication enhancement; HSV replication augmentation in cells, fold increase; maximum fold increase; hit rate 0.005% among 220,000; AID 1956;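 active = peak rise of 1.5-fold or more in the series; tested in PC3 cells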;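 also: first round at 10 µM; read as green reporter fluorescence; hits show the peak of a series up to 25 µM; 1 = signal of infected wells without compound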
# INS promoter inh cell count = further read-out of INS promoter inh, marked with its call; normalized cell count, %; measured here: cell count, toxicity; reference of the scale not given here;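 cells exposed to compound for 48 h; stained nuclei by imaging scaled within each plate; lower means fewer cells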
# HSV replic up primary fold = recorded beside HSV replic up, whose call it bears; fold increase; compound at 10 µM; measured here: primary screen fold increase 10 uM; tested in PC3 cells;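 GFP signal in the first replicate; 1 = infected wells without compound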
# Starred values were filed as active, the others as inactive; i = inactive; x = no result given.
SMILES,RGS16-Gao HTS,INS promoter inh,INS promoter inh cell count,GALR2 ag,PKD1 kinase inh,HSV replic up,HSV replic up primary fold
C/C(=N\S(=O)(=O)c1ccc(C)cc1)NC(=S)Nc1ccc(C)cc1,104,x,x,x,0,i,0.97
CC(C)Sc1ncc(S(=O)(=O)c2ccccc2)c(=O)[nH]1,100,-106,89,x,0,i,0.91
CCOP1(=O)OCC2OC(n3cnc4c(N)ncnc43)C(O)C2O1 (centres undefined),101,x,x,x,x,i,1.1
O=C(NN1C(=O)C2C(C1=O)C1C=CC2C12CC2)c1ccc(Cl)cc1 (centres undefined),105,x,x,x,x,i,0.97
CCOc1ccc(CN(C)CC(=O)NCc2ccccc2Cl)cc1,110,-25,86,x,-2,i,0.99
CCc1cc(C(=O)c2ccc(OC)cc2)c(NC(=O)CN2CCN(C)CC2)s1,106,x,x,x,x,i,0.72
CC(=O)c1cccc(CN2CCC(CO)(Cc3ccccc3)CC2)c1,100,x,x,x,-9,i,0.91
COc1ccc(-c2nnc(SCC(=O)N3CCCCC3)o2)cc1OC,100,-29,128,-1.3,-2,i,0.85
Cc1ccccc1NC(=O)C1CCCN(S(=O)(=O)c2c(C)noc2C)C1 (centres undefined),101,x,x,-1.9,2,i,1
COCCNc1nc(-c2cc(-c3ccc(Cl)cc3)on2)cc(C(C)C)n1,102,x,x,x,x,i,0.8
NC(=O)COC(=O)c1ccccc1OCc1ccc(Cl)cc1,104,x,x,x,4,i,0.9
COC(=O)CSc1nnc(CNS(=O)(=O)c2ccc(C)cc2)n1C,103,13,108,-3.2,-8,i,0.95
COc1ccc(C2CC(=O)OC3=C2C(=O)CC(C)(C)C3)c(OC)c1 (centres undefined),105,-33,77,x,-1,i,0.97
O=C(N/N=C/c1cccc([N+](=O)[O-])c1)c1c[nH]c2ccccc12,97,x,x,x,x,i,0.8
c1ccc(-n2cnc3cc(NCc4ccccn4)ccc32)cc1,112,28,114,-2.0,-2,i,0.95
Cc1nn(-c2ccccc2)c(N2CCCCC2)c1/C=N/NC(=O)c1ccncc1,112,x,x,x,-4,i,1
Cn1c(CCN2CCCCC2)nc2cc(NS(=O)(=O)c3ccc(Cl)cc3)ccc21,97,x,x,x,x,i,0.5
CC(C)(C)NC(=O)NC(=O)CN1CCN(c2ccccc2O)CC1,108,-25,104,x,-5,i,0.96
O=C(CSc1nc2ccccc2c(=O)n1C1CC1)NCc1ccccc1,100,-6,143,-1.2,5,i,0.92
CC(=O)n1c(Cl)c(NC(=O)CCl)c2ccccc21,110,-4,124,-0.8,-8,i,0.7
COc1ccccc1CNC(=O)Cc1ccc(Br)cc1,74,40,43,-2.6,-2,i,0.9
CC1CCCN(CC(O)COCc2ccc3c(c2)OCO3)C1 (centres undefined),90,x,x,x,3,i,1
CCOC(=O)N1CCc2c(sc3c2c(=O)n(Cc2ccccc2)c(=O)n3Cc2ccc(C)cc2)C1,98,-32,90,-0.4,1,x,x
O=C(CN1CCN(Cc2ccccc2F)C1=O)NCc1cccnc1,91,x,x,-1.8,-2,i,0.76
CCCCN(C)C(=O)c1cc2c(s1)-c1ccccc1S(=O)(=O)C2,103,x,x,x,x,i,0.91

# Next structures follow.
SMILES,RGS16-Gao HTS,INS promoter inh,INS promoter inh cell count,GALR2 ag,PKD1 kinase inh,HSV replic up,HSV replic up primary fold
CCOC(=O)CCc1c(C)nc2cc(-c3ccc(F)cc3)[nH]n2c1=O,96,20,140,1.0,3,i,0.91
O=C1CCCN1CCCNc1ncnc2c1[nH]c1ccc(Cl)cc12,106,81*,112*,-1.3,-3,i,0.99
O=C(O)c1[nH]c2ccccc2c1-c1ccccc1,96,13,105,-1.4,-5,i,1
O=C1C2C3C=CC(C3)C2C(=O)N1CNc1ccc(O)cc1 (centres undefined),90,x,x,x,x,i,1
COc1ccc(C2C(C(=O)NCc3ccccn3)CCC(=O)N2c2cc(OC)c(OC)c(OC)c2)cc1 (centres undefined),100,x,x,x,-2,i,0.96
Cc1ccc(OCC(=O)NC2CCS(=O)(=O)C2)cc1 (centres undefined),110,19,94,0.1,-8,i,0.89
O=C(Oc1ccc2c(c1)OCO2)c1cccs1,103,7,120,0.0,-7,i,0.82
CCC(Cc1ccccc1)NC(=O)CCn1cccc1 (centres undefined),101,-3,158,-0.8,-6,i,0.81
COCCn1c(=NC(=O)c2nc3ccccc3s2)sc2cc(S(C)(=O)=O)ccc21,100,x,x,0.0,3,i,1.1
c1ccc(Cc2nnc3sc(-c4ccncc4)nn23)cc1,98,38,114,-1.7,-1,i,0.9
Clc1ccsc1-c1ccc2ccccc2n1,102,6,148,-2.9,-6,i,0.97
O=C(Nc1cccc(NC(=O)c2ccc(-c3ccc(Br)cc3)o2)c1)c1ccco1,99,33,138,-0.8,7,i,0.69
COC(=O)c1ccc(C2C(Oc3ccccc3)C(=O)N2CCc2ccc(F)cc2)cc1 (centres undefined),100,x,x,-2.3,-5,i,1
N/C(Cc1cccc2ccccc12)=N\OC(=O)c1ccc(Br)o1,99,-108,92,x,-2,i,1.1
CC(C(=O)O/N=C(\N)c1cccnc1)c1ccc([N+](=O)[O-])cc1 (centres undefined),105,0,180,x,-7,i,0.98
O=C(O)c1ccc(N/N=C/C=C/c2ccccc2[N+](=O)[O-])cc1,100,x,x,x,0,i,0.8
O=C(N/N=C/c1ccc(-c2cccc([N+](=O)[O-])c2)o1)c1cccs1,105,x,x,x,-10,i,0.76
Cn1nc(-c2ccc(NCCO)c([N+](=O)[O-])c2)c2ccccc2c1=O,109,x,x,x,-1,i,0.86
CN(C)C(=O)N1CCC(C(=O)NCC2CCCO2)CC1 (centres undefined),104,x,x,-2.6,-4,x,x
CCOC(=O)c1c(C)nc2sc3c(=O)n(-c4ccc(C(C)=O)cc4)cnc3c2c1-c1ccc(OC)cc1,91,x,x,-0.8,-1,i,0.88
CCN(CC)C(=O)Cc1cc(C(=O)O)c2ccccc2n1,97,21,104,-0.6,1,i,0.83
CCOc1cc(C(=O)N2CCN(C/C=C/c3ccccc3)CC2)cc(OCC)c1OCC,105,17,153,-0.2,1,i,1
O=S(=O)(Nc1ccncc1Cl)c1cc(Cl)ccc1Cl,107,x,x,x,x,i,1
CC(=O)Nc1cccc(N2C(=O)CCC2=O)c1,99,14,67,-6.4,-6,i,1
CCOC(=O)c1cc(CNC(=O)c2c(C)oc3c2CCCC3)c(C)o1,102,-9,127,-2.5,-2,i,0.72

# Rewritten with two lines to a compound: part of the list above
# Below each compound – RGS16-Gao HTS, INS promoter inh, INS promoter inh cell count, GALR2 ag, PKD1 kinase inh, HSV replic up, HSV replic up primary fold
COCCn1c(=NC(=O)c2nc3ccccc3s2)sc2cc(S(C)(=O)=O)ccc21
→ 100, x, x, 0.0, 3, i, 1.1
c1ccc(Cc2nnc3sc(-c4ccncc4)nn23)cc1
→ 98, 38, 114, -1.7, -1, i, 0.9
Clc1ccsc1-c1ccc2ccccc2n1
→ 102, 6, 148, -2.9, -6, i, 0.97
O=C(Nc1cccc(NC(=O)c2ccc(-c3ccc(Br)cc3)o2)c1)c1ccco1
→ 99, 33, 138, -0.8, 7, i, 0.69
COC(=O)c1ccc(C2C(Oc3ccccc3)C(=O)N2CCc2ccc(F)cc2)cc1 (centres undefined)
→ 100, x, x, -2.3, -5, i, 1
N/C(Cc1cccc2ccccc12)=N\OC(=O)c1ccc(Br)o1
→ 99, -108, 92, x, -2, i, 1.1
CC(C(=O)O/N=C(\N)c1cccnc1)c1ccc([N+](=O)[O-])cc1 (centres undefined)
→ 105, 0, 180, x, -7, i, 0.98
O=C(O)c1ccc(N/N=C/C=C/c2ccccc2[N+](=O)[O-])cc1
→ 100, x, x, x, 0, i, 0.8
O=C(N/N=C/c1ccc(-c2cccc([N+](=O)[O-])c2)o1)c1cccs1
→ 105, x, x, x, -10, i, 0.76
Cn1nc(-c2ccc(NCCO)c([N+](=O)[O-])c2)c2ccccc2c1=O
→ 109, x, x, x, -1, i, 0.86
CN(C)C(=O)N1CCC(C(=O)NCC2CCCO2)CC1 (centres undefined)
→ 104, x, x, -2.6, -4, x, x
CCOC(=O)c1c(C)nc2sc3c(=O)n(-c4ccc(C(C)=O)cc4)cnc3c2c1-c1ccc(OC)cc1
→ 91, x, x, -0.8, -1, i, 0.88
CCN(CC)C(=O)Cc1cc(C(=O)O)c2ccccc2n1
→ 97, 21, 104, -0.6, 1, i, 0.83
CCOc1cc(C(=O)N2CCN(C/C=C/c3ccccc3)CC2)cc(OCC)c1OCC
→ 105, 17, 153, -0.2, 1, i, 1
O=S(=O)(Nc1ccncc1Cl)c1cc(Cl)ccc1Cl
→ 107, x, x, x, x, i, 1
CC(=O)Nc1cccc(N2C(=O)CCC2=O)c1
→ 99, 14, 67, -6.4, -6, i, 1
CCOC(=O)c1cc(CNC(=O)c2c(C)oc3c2CCCC3)c(C)o1
→ 102, -9, 127, -2.5, -2, i, 0.72

# Next entries:
SMILES,RGS16-Gao HTS,INS promoter inh,INS promoter inh cell count,GALR2 ag,PKD1 kinase inh,HSV replic up,HSV replic up primary fold
CCOC(=O)c1c(N2C(=O)Nc3ccccc3N2O)n[nH]c1-c1cccc(Cl)c1,100,x,x,x,0,i,0.97
Cc1cc(C)cc(NC(=S)NCc2cccs2)c1,62,-27,90,-1.1,-4,i,0.99
COCCCNC(=O)CSC1=Nc2ccccc2C2=NC(c3ccccc3)C(=O)N12 (centres undefined),108,45,127,x,0,i,1
CCCN1C(=O)c2ccccc2NC1c1ccc(OC)cc1OC (centres undefined),98,x,x,-0.9,7,i,0.87
Cc1cc(Cl)ccc1NC(=S)NC(C)(C)C,89,-29,83,x,5,i,1.1
Cc1ccc(C(=O)CSc2ccc(-c3cccnc3)nn2)cc1,102,25,139,x,-2,i,1.1
O=c1[nH]c(SCc2cccc(Cl)c2)nc2ccccc12,101,x,x,x,-8,i,0.84
N#CCc1nn(-c2ccc(Cl)cc2)c(N)c1C#N,105,x,x,-0.1,-2,i,1.1
Cc1cc(=O)oc2c(C(=O)/C=C/c3ccccc3)c(O)ccc12,48,-33,83,-1.4,-4,i,0.6
NC(N)=N/N=C/c1ccc(OCc2ccccc2Cl)cc1,110,37,68,-2.1,17,i,0.47
CCC1Cc2c(nc(N)c3c(N)nc(N4CCCCC4)c(C#N)c23)O1 (centres undefined),98,-120,157,x,-1,i,0.82
CCc1ccc(N2Cc3ccccc3C2)cc1,99,x,x,x,x,i,0.99
O=c1c(-c2ccccc2)c(O)c2c(n1-c1ccccc1)CCCC2,75,15,92,-2.1,12,i,0.96
O=C(Nc1ccc(NC(=S)NC(=O)C(c2ccccc2)c2ccccc2)cc1)c1ccccc1,x,33,101,1.0,-4,i,0.82
Cc1cc(C)c(S(=O)(=O)N2CCCOC2CNC(=O)C(=O)NCCC2=CCCCC2)c(C)c1 (centres undefined),94,-23,94,-1.2,-15,i,0.93
Cc1c(Cl)c([N+](=O)[O-])nn1CCCC(=O)Nc1c(Cl)cccc1Cl,110,20,127,0.2,1,i,0.92
COc1ccccc1N(CC(O)CN(c1ccccc1)S(C)(=O)=O)S(=O)(=O)c1ccccc1 (centres undefined),101,-3,116,-4.5,-13,i,0.92
CC(=O)C(C)Oc1ccc2c3c(c(=O)oc2c1)CCCC3 (centres undefined),65,14,84,-0.3,1,i,0.96
O=C(NC(=S)NC1C2CC3CC(C2)CC1C3)C12CC3CC(CC(C3)C1)C2 (centres undefined),134,11,64,-1.0,0,i,1.2
COc1ccccc1OCCC(=O)OCC(=O)Nc1ccc(Br)cc1F,109,19,139,x,-2,i,1
CCCSc1nnc(-c2ccccc2NC(=O)CC)c(=O)[nH]1,91,-230,55,0.6,-1,i,1
O=C(CCS(=O)(=O)c1cccs1)N1CCCC1,110,x,x,-2.7,-32,i,0.86

# Part of the list above, limited to INS promoter inh, INS promoter inh cell count and HSV replic up.
smiles,INS promoter inh,INS promoter inh cell count,HSV replic up
COCCCNC(=O)CSC1=Nc2ccccc2C2=NC(c3ccccc3)C(=O)N12 (centres undefined),45,127,i
CCCN1C(=O)c2ccccc2NC1c1ccc(OC)cc1OC (centres undefined),x,x,i
Cc1cc(Cl)ccc1NC(=S)NC(C)(C)C,-29,83,i

# Screening data deposited in PubChem by several laboratories.
